Ecoli rRNA inh: inhibitors of bacterial rRNA selective over humanized ribosomes; GFP signal change (wild-type ribosome), % (no concentration beside the values); E. coli WT GFP vs humanized-ribosome RFP mutants, fluorescence, 24 h; active compounds read low; DMSO median 0, no signal -100; AID 720706; actives 1.6% (n = 350,000);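 active = significant combined selectivity score with lowered wild-type GFP, culture density cut under 30%, mutant RFP and density less affected; inactive = any of these conditions unmet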; note: one replicate is shown; some compounds called inactive have numbers as strong as hits
LANA-H2B inh: blocks KSHV LANA binding to histone H2A/H2B | inhibition, % (no concentration beside the values) | cell-free LANA-H2A/H2B peptide, fluorescence polarization | Q9QR71 | AID 2629 | actives 0.6% (n = 320,000); in the data active = inhibition mostly above about 10%, no sharp cut-off; inactive = mostly below about 6.7%;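 note: stock transfer was 7.5 nL into about 10 µL; 0% = median of vehicle wells and 100% = median of positive control wells; one replicate is shown; the record names a cut of 25% in any replicate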
Beta cell apopt: beta cell apoptosis inhibition; INS-1E cytokine-induced death, ATP luminescence, 48 h; percent of positive-control rescue, neutral wells zero; protection from apoptosis, % (concentration not given with the values); actives 0.8% (n = 300,000);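 active = all replicates at 75% or more, or half of them and the mean; inconclusive = half reach 75% but not the mean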;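 note: 0% = cytokine-treated negative control wells and 100% = positive control rescue; higher means more ATP so stronger rescue from cytokine killing; wells of about 40 µL received 100 nL stock; the first replicate is given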
A1 inh: inhibitors of the anti-apoptotic protein A1, read as caspase activation. actives 0.066% (n = 330,000). caspase activation, % (concentration not given with the values). MEF A1-2A-BIM cells, Caspase-Glo 3/7 luminescence, 3 h; percent of clofoctol response, vehicle zero;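 active = over half of replicate activation scores above 10%, or exactly half above 10 with the replicate mean above 10; inconclusive = replicate mean below 10 yet half the replicates above 10; inactive = over half of replicates below 10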;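 note: wells of about 30 µL received 50 nL stock; many hits fall short of the cut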
ALR inh: inhibitors of human sulfhydryl oxidase ALR | P55789 | purified ALR, DTT oxidation, H2O2 HRP-luminol luminescence | inhibition, % (test concentration not listed) | actives 3.8% (n = 290,000) | AID 485317;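 active = mean and each replicate at 75% or more; inconclusive = only one of the two met; inactive = neither met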;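 note: stock transfer was 7.5 nL into about 7.5 µL; 0% = neutral wells and 100% = wells with inactivated enzyme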
Target sequence (P55789 whole entry, looked up): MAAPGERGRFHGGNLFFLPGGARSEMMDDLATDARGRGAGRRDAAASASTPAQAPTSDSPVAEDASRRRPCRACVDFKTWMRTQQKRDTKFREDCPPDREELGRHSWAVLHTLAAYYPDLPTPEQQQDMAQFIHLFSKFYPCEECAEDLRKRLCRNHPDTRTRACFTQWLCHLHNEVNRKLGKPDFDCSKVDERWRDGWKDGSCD
B2AR ag: activates human beta-2 adrenergic receptor causing internalization; P07550; Am2.2-beta2AR cells, FAP receptor internalization, flow cytometry; reference of the scale not given here; response, % (no concentration beside the values); actives 0.43% (n = 340,000); AID 504454;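 active = response above a set limit, near 3 SD of response in nonfluorescent compounds, cut at about 42% in these data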;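 note: stock transfer was 100 nL into about 11 µL; a reference agonist was the positive control; negative values mostly stem from fluorescent compounds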
Target sequence (P07550 whole entry, looked up): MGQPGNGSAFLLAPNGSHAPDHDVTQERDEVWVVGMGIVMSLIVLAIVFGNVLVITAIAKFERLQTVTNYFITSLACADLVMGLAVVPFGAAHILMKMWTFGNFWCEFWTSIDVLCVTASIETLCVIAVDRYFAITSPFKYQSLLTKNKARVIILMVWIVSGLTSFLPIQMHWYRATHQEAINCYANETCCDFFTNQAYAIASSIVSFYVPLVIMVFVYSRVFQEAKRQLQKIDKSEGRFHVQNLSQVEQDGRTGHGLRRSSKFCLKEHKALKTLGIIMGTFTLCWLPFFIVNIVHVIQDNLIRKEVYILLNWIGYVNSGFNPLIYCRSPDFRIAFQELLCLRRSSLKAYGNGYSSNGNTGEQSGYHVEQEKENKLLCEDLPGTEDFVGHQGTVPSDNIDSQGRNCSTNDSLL
Calb FLC: C. albicans growth modulation with fluconazole. C. albicans CaCi-2 (fluconazole-resistant clinical isolate) + fluconazole, Alamar Blue growth, 48 h. growth inhibition, % (no concentration beside the values). actives 0.57% (n = 300,000);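 active = most replicates above 75%; inconclusive = exactly half above 75%; inactive = most below 75%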;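 note: all wells also contain fluconazole at 8 µg/ml as a sub-toxic cotreatment; 0% = median of DMSO wells and 100% = median of geldanamycin control wells; wells of about 8 µL received 7.5 nL stock; the first replicate is given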
T cruzi inh: T. cruzi replication inhibition; T. cruzi beta-gal in NIH3T3, luminescence, 90 h; inhibition, % (no concentration beside the values); actives 1.4% (n = 300,000); AID 1885;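 active = mean inhibition across valid replicates above about 55%, limit read from the data; inconclusive = mean below that limit but half or more replicates reach it; inactive = mean below it, under half of replicates reach it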;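 note: signal also drops with host cell toxicity which is not excluded here; 0% = plate median of DMSO wells and 100% = zero luminescence signal; higher percent means less beta-gal luminescence so fewer parasites; stock transfer was 50 nL into about 50 µL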
Ecoli rRNA inh OD600: recorded beside Ecoli rRNA inh, whose call it bears; OD600 change, %; measured here: OD600 growth;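 optical density of the mix in the first replicate; 0 = DMSO median and -100 = no signal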
Ecoli rRNA inh RFP: further read-out of Ecoli rRNA inh, marked with its call; RFP signal change, %; measured here: RFP humanized mutant strains;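 first replicate; 0 = DMSO median and -100 = no signal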
Starred values were filed as active, the others as inactive; ? = inconclusive; . = no result given.

SMILES	Ecoli rRNA inh	Ecoli rRNA inh OD600	Ecoli rRNA inh RFP	LANA-H2B inh	Beta cell apopt	A1 inh	ALR inh	B2AR ag	Calb FLC	T cruzi inh
Cc1cc(N2CCCC2=O)cc(C)c1CN1C(=O)c2ccccc2C1=O	-5	-1	-2.9	-5.5	-2	-0.4	1	-9	5	5
CCn1cc(C(=O)N[C@@H](C)C(=O)NCCCO)c(=O)c2cc3c(cc21)OCO3	-18	-15	3.8	3.2	-10	0.9	-10	3	6	0
Cc1ccc(C2(c3noc(CN(C)CCCN4CCOCC4)n3)CCCC2)cc1	14	4	0.6	-5.1	-2	-0.5	3	.	-20	27
O=C(NCc1ccco1)c1cc(S(=O)(=O)N2CCOCC2)ccc1Cl	.	.	.	7.3	-6	0.8	-8	-1	-4	-1
COc1ccc(Cl)cc1NC(=O)NCc1ccc2c(c1)OCO2	21	10	0.5	5.9	1	0.8	-3	4	-17	-5
Cc1ccc(-c2nnn(CC(=O)N(c3ccc(F)cc3)C(C(=O)NC3CCCC3)c3ccncc3)n2)o1 (configuration not stated)	9	5	-1.0	3.0	-1	-0.6	-6	-2	19	0
N#CCSc1nc2ccccc2c(=O)n1-c1ccccc1	.	.	.	-2.4	0	-0.6	-11	-2	-3	9
Cc1ccc(CC(=O)N2CCN(C(=O)c3ccco3)CC2)cc1	8	11	0.3	7.4	0	0.4	-1	.	2	-8
Cc1ccc(-n2cc(-c3ccccc3)c3c(N4CCN(C)CC4)ncnc32)cc1	-56	-78	-35	5.5	-6	-0.1	-98	0	35	21
CCN(CC)CCn1c(=N)n(CCO)c2ccccc21	.	.	.	-1.0	-4	0.3	0	0	5	1
CC(=O)Nc1c(-c2ccc(Cl)cc2)c(=O)c2ccccc2n1C	15	11	2.6	-1.2	.	0.7	.	1	-7	-4
CC(C)Cc1nnc(NC(=O)CSc2nc(O)c(-c3ccccc3)c(=O)[nH]2)s1	6	6	-7.7	-3.6	-5	0.1	68	8	?	-14
O=C(OCc1ccc([N+](=O)[O-])cc1)C1CC(=O)N(c2ccccc2)C1 (configuration not stated)	17	16	-4.2	-1.5	-1	0.9	-3	-1	5	-6
N#Cc1ccc(CN2CCN(C(=O)c3cn(Cc4ccccc4)nc3-c3cccnc3)CC2)cc1	1	3	-1.8	-3.4	1	0.5	-1	-1	.	.
COc1ccc(CN2CCNC(=O)C2CC(=O)NCc2cnn(C)c2)cc1OC (configuration not stated)	15	12	4.5	3.4	-6	-0.3	.	-5	26	0

A second format for seven compounds above:
| canonical_smiles | Ecoli rRNA inh | Ecoli rRNA inh OD600 | Ecoli rRNA inh RFP | LANA-H2B inh | Beta cell apopt | A1 inh | ALR inh | B2AR ag | Calb FLC | T cruzi inh |
| --- | --- | --- | --- | --- | --- | --- | --- | --- | --- | --- |
| CC(=O)Nc1c(-c2ccc(Cl)cc2)c(=O)c2ccccc2n1C | 15 | 11 | 2.6 | -1.2 | . | 0.7 | . | 1 | -7 | -4 |
| O=C(NCc1ccco1)c1cc(S(=O)(=O)N2CCOCC2)ccc1Cl | . | . | . | 7.3 | -6 | 0.8 | -8 | -1 | -4 | -1 |
| O=C(OCc1ccc([N+](=O)[O-])cc1)C1CC(=O)N(c2ccccc2)C1 (configuration not stated) | 17 | 16 | -4.2 | -1.5 | -1 | 0.9 | -3 | -1 | 5 | -6 |
| CC(C)Cc1nnc(NC(=O)CSc2nc(O)c(-c3ccccc3)c(=O)[nH]2)s1 | 6 | 6 | -7.7 | -3.6 | -5 | 0.1 | 68 | 8 | ? | -14 |
| N#CCSc1nc2ccccc2c(=O)n1-c1ccccc1 | . | . | . | -2.4 | 0 | -0.6 | -11 | -2 | -3 | 9 |
| N#Cc1ccc(CN2CCN(C(=O)c3cn(Cc4ccccc4)nc3-c3cccnc3)CC2)cc1 | 1 | 3 | -1.8 | -3.4 | 1 | 0.5 | -1 | -1 | . | . |
| CCN(CC)CCn1c(=N)n(CCO)c2ccccc21 | . | . | . | -1.0 | -4 | 0.3 | 0 | 0 | 5 | 1 |

Carrying on.
SMILES	Ecoli rRNA inh	Ecoli rRNA inh OD600	Ecoli rRNA inh RFP	LANA-H2B inh	Beta cell apopt	A1 inh	ALR inh	B2AR ag	Calb FLC	T cruzi inh
O=C(CCCOc1ccccc1)N1CCN(c2ccccn2)CC1	.	.	.	4.5	3	-1.0	-7	-4	1	-4
Cn1nc(C(=O)NC2CCC(O)CC2)c2ccccc2c1=O (configuration not stated)	.	.	.	-2.7	0	1.9	.	-4	.	.
O=C(Nc1ccccc1[N+](=O)[O-])C1COc2ccccc2O1 (configuration not stated)	-15	-16	1.8	2.4	1	-2.9	.	5	-14	-8
CC1CCC(NC(=O)CNC(=O)Cc2cccc3ccccc23)CC1 (configuration not stated)	3	7	0.8	-3.2	-6	-0.3	3	1	-15	0
COc1cccc(-c2cccc(NC(=O)C3CCN(C4CCOCC4)CC3)c2)c1	10	11	-0.7	.	.	.	-21	3	-14	-5
CCOC(=O)CC(NC(=O)c1ccccc1F)c1ccc(C)cc1 (configuration not stated)	-2	-8	-0.1	-5.7	1	0.8	3	-9	7	-8
Cc1ccc(C)c(OCCn2ccnc2)c1	.	.	.	0.5	6	0.0	-6	-1	2	-19
O=C(Cc1cccs1)N1CCN=C1SCc1ccccc1Cl	-11	-8	0.8	1.5	-7	0.4	.	10	-7	4
N#CCCN(Cc1cccnc1)C(=S)NC(=O)c1ccccc1	21	19	2.5	2.2	-4	0.6	.	-2	.	.
CS(=O)(=O)Nc1ccc(C(=O)NCc2ccco2)cc1	.	.	.	2.4	-10	0.2	6	0	3	-11
Cc1c(NC(=O)Nc2cccc([N+](=O)[O-])c2)c(=O)n(-c2ccccc2)n1C	5	15	-3.3	4.3	-11	-0.6	-3	-3	4	5
C=CCSc1nc2sc(-c3ccccc3)cc2c(=O)n1N	.	.	.	2.6	-3	-1.0	.	-1	23	-5
Cc1nc(CC(=O)Nc2nc(-c3ccccc3)cs2)cs1	.	.	.	-0.3	-8	-0.6	-21	7	-11	0
COc1ccc(S(=O)(=O)NCC2CCCN(Cc3ccc(O)cc3)C2)cc1 (configuration not stated)	2	2	-0.8	1.6	6	-0.6	-2	-4	4	-6
Cc1cc(C)n2nc(SCC(=O)NC3CCCCC3)nc2n1	9	5	1.3	0.2	-9	2.6	-3	-13	6	9
COC(=O)c1ccc(S(=O)(=O)NCc2ccc(S(N)(=O)=O)cc2)n1C	29	9	4.7	-2.1	-20	1.6	-6	-2	2	-4
CCCc1cc(=O)n2[nH]c(NCc3ccc(OC)c(OC)c3)nc2n1	-5	-7	-2.0	-3.2	-5	-0.6	-5	-1	-12	-3
Fc1ccc(Cn2cnc3ccccc32)cc1	.	.	.	0.3	-4	2.4	-17	0	-8	-5
O=C(CCSCCc1ccccn1)Nc1nccs1	-1	-1	0.0	-3.8	-3	-0.2	-10	-8	-3	1
CC(C)(C)[C@@H]1C=C(C(=O)N2CCN(Cc3ccc4c(c3)OCO4)CC2)O[C@H](OCc2ccc(CO)cc2)C1	-19	-35	-13	-0.2	2	0.6	-7	-1	-8	35
Cc1ccc(S(=O)(=O)n2ccc(OC(=O)c3cccs3)n2)cc1	15	10	-0.4	4.2	-6	2.5	70	4	-2	-16
COc1ccc(-n2cc(CNCC3CCOCC3)c(-c3cccc(F)c3)n2)cc1	-8	-1	4.5	-0.6	-2	0.8	-10	5	-16	13
COCCNC(=S)N1CCC(c2nc(-c3ccc(N(C)C)cc3)no2)CC1	.	.	.	0.2	7	0.1	40	-6	-17	6
COc1c(F)c(F)c(C(=O)Nc2cccc(Cl)c2N2CCOCC2)c(F)c1F	.	.	.	1.5	3	-0.1	-1	1	7	22
CCN1CCN(C(=O)c2ccc(-c3nc4ccccc4s3)s2)CC1	-22	-20	-2.0	-1.8	4	-5.9	-5	-11	24	7
Cc1nnc2ccc(N3CCOCC3)nn12	16	14	0.7	4.6	-1	0.1	.	-1	1	-8
CN1CCN(C(=O)c2cnn(-c3ccccc3)c2NC(=O)c2cccs2)CC1	.	.	.	-8.5	-6	-0.1	-2	2	-3	5
CCOC(=O)N1CCN(C(=O)c2cnn3c(C(F)(F)F)cc(-c4cccs4)nc23)CC1	16	14	0.9	3.5	1	0.8	.	-21	9	9
CCSc1nnc(NC(=O)c2nc3nc(C)cc(C)n3n2)s1	-14	0	-6.7	-1.6	-6	0.2	5	-6	-14	1
Cc1cc(C)c(S(=O)(=O)ON2C(=O)c3ccccc3C2=O)cc1C	.	.	.	-3.5	24	0.7	13	8	20	7
COc1ccccc1C(=O)NCCC(=O)NCc1ccccn1	9	18	-2.6	-0.7	-3	-0.1	0	-6	.	.
Nc1ccc2nc(SCc3ccc([N+](=O)[O-])cc3)sc2c1	-5	9	-1.7	-4.1	-1	0.8	-6	11	49	12
NS(=O)(=O)c1ccc(CNC(=O)CC23CC4CC(CC(C4)C2)C3)cc1	.	.	.	-0.1	-12	0.3	-1	-1	-3	8
O=C(O)c1ccc(NC(=O)c2cccc(N3C(=O)C4C5CCC(C5)C4C3=O)c2)cc1 (configuration not stated)	.	.	.	2.8	-4	0.6	-2	0	-20	8
Cc1cc(N2CCN(C3CCCC3)CC2)n2c(nc3ccccc32)c1C#N	.	.	.	-2.3	11	-0.5	-2	-9	-8	1
Cc1ccc(S(=O)(=O)NCc2ccc(C(=O)NC3CCC(C)CC3)cc2)cc1 (configuration not stated)	5	8	0.6	1.0	14	-0.2	-4	2	-8	-10
O=C(NN=Cc1ccc(N2CCOCC2)s1)c1ccc([N+](=O)[O-])cc1	4	12	-1.0	-1.0	1	-0.5	?	8	.	.
CC(=O)OCC(=O)Nc1ccc(Cl)cc1Cl	.	.	.	-2.3	-5	0.5	-4	4	8	-6
Cc1cccc(N2CCN(C(=O)c3ccc(Cl)c(S(=O)(=O)NCc4ccco4)c3)CC2)c1C	.	.	.	2.0	4	0.1	-6	-1	22	25
O=C(NNC(=O)C1CC(=O)N(Cc2ccccc2)C1)c1ccc(Br)cc1 (configuration not stated)	-7	7	9.5	-1.7	-2	-0.9	3	0	3	-10
CN(C)C=NC(=O)c1ccc([N+](=O)[O-])c(CS(=O)(=O)c2ccc(Cl)cc2)c1	.	.	.	-5.3	-10	0.0	68	1	-7	-7
Cc1nc2ccccc2c(=O)n1NC(=O)CCC(=O)O	9	11	2.5	6.5	-13	-0.3	-1	-3	-7	-4
COc1cccc(-n2c(SCC(=O)NCCc3ccccc3)nnc2-c2ccoc2C)c1	.	.	.	-2.8	1	-1.1	-9	-1	8	-2

Bioassay records: PubChem, several laboratories

An excerpt; rates above refer to the full screens.
